Bioassay records: PubChem BioAssay, Johns Hopkins Ion Channel Center
KCNQ2 inh – KCNQ2 potassium channel inhibitors, primary screen, cell-based, CHO-K1, FluxOR thallium flux, B-score (AID 2156). O88943. 20 min; stronger effect = lower value; only compounds with negative scores are shown here; some inactives read as strong as hits. B-score at 10 µM. actives 1.1% (n = 310,000);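 active = fluorescence ratio B-score at most minus 3 library SDs, with starting brightness B-score within 2 library SDs, cut at about -5.5 in these data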
Target sequence (O88943 whole entry, looked up): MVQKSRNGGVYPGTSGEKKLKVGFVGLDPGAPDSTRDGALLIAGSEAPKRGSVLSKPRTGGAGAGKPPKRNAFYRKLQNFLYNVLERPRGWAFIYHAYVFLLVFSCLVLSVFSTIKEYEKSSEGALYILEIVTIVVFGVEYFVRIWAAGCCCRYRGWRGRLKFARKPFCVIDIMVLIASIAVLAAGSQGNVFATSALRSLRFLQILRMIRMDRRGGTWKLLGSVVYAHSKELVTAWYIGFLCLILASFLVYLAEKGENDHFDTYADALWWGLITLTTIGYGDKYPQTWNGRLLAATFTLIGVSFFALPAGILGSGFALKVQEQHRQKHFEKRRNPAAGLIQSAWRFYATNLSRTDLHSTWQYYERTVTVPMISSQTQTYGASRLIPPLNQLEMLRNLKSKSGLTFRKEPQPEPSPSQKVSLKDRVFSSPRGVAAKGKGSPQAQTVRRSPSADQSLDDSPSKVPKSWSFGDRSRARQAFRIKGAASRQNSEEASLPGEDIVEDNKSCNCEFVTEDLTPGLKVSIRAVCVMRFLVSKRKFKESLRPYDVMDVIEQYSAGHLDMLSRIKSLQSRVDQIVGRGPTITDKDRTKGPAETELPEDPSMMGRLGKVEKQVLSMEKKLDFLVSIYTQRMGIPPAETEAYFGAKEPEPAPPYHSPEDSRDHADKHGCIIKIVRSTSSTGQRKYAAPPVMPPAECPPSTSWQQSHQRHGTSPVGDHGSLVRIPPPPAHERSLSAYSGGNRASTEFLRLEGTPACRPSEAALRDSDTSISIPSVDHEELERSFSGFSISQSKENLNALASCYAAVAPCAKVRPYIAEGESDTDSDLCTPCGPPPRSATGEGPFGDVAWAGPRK
KCNQ2 inh baseline – also measured in KCNQ2 inh; calls as there; B-score; measured here: initial fluorescence intensity artifact check;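 brightness before thallium and not channel activity; 0 = typical well and far values either way flag optical interference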
The depositor's hits bear a star; i = inactive. The list is partial, so the mix of outcomes need not match the whole.

KCNQ2 inh | KCNQ2 inh baseline | structure
i | 0.75 | Cc1[nH]nc2c1C(c1ccsc1)C(C#N)=C(N)O2 (stereo not given)
i | -0.12 | CCOc1ccc(N(C)S(=O)(=O)c2csc(C(N)=O)c2)cc1
i | -0.26 | COc1ccc(CCN2C(=O)C(C)=C(C)C2=O)cc1OC
i | -0.73 | CN(Cc1c(C(=O)N(C)Cc2ccccc2)nc2ccccn12)CC1Cc2ccccc2O1 (stereo not given)
i | -1.08 | CCn1c(=O)cc(OCC(=O)NCc2cccnc2)c2ccccc21
i | -0.83 | Fc1ccc(Oc2nc(-c3ccccc3)nnc2C(F)(F)F)cc1
i | 2.03 | O=c1[nH]c(=S)[nH]c2sccc12
i | 1.74 | Cc1ccc(S(=O)(=O)Nc2ccccc2F)cc1C(=O)NNC(=O)c1ccccc1O
i | 2.57 | O=Cc1ccccc1OCc1ccc2c(c1)OCO2
i | -0.47 | CC(NC(=O)CSc1nnc(COc2ccccc2)o1)c1ccccc1 (stereo not given)
i | -0.04 | CSc1nsc(SCC(=O)Nc2cccc(C(=O)O)c2)n1
-7.68* | 0.44* | COC(=O)c1cc(NC(=O)c2cccc(C(F)(F)F)c2)c(=O)oc1C/C=N/OCc1cccc(Cl)c1Cl
i | -1.05 | COc1ccc(C2C(C#N)=C(N)Oc3cc(O)ccc32)cc1C (stereo not given)
i | -0.84 | CCCCNC(=O)C1CCC(CNS(=O)(=O)c2ccc(NC(C)=O)cc2)CC1 (stereo not given)
i | 1.45 | O=C1CCSc2ccc(Cl)cc2N1Cc1ccc(Cl)cc1
i | 0.34 | NNC(=O)C(Cc1cnc[nH]1)NC(=O)OCc1ccccc1 (stereo not given)
i | 0.03 | COc1ccc(-c2oc3ncn(Cc4ccco4)c(=N)c3c2-c2ccc(OC)cc2)cc1
i | 0.23 | CCCCC(=O)c1ccc(O)cc1
i | -1.04 | CCOc1ccc2oc(=O)cc(CN3CCOCC3)c2c1
i | -0.98 | Cc1cc(S(=O)(=O)N2CCCOC2CNC(=O)C(=O)NCc2cccs2)ccc1F (stereo not given)
i | -0.02 | Cc1nc(CS(=O)(=O)c2ccc(Cl)cc2)cc(Sc2ccccc2Cl)n1
i | 0.34 | Cc1ccsc1C1Nc2ccc3ncccc3c2C2=C1C(=O)CC(C)(C)C2 (stereo not given)
i | -2.4 | CC(=O)Nc1ccc(S(=O)(=O)N2CCC(N(C)CCC(C)C)CC2)cc1
i | -0.74 | CC(=O)C1=C(c2ccccc2)NC(=O)NC1c1ccccc1OCC(=O)Nc1ccccc1 (stereo not given)
-5.74* | 1.51* | COC(=O)c1sccc1NC(=O)c1c(C)c(-c2cccc(Cl)c2)nc2ccccc12
i | -1.12 | O=C(/C=C\c1ccco1)c1ccc(NC(=O)c2ccco2)cc1
i | -0.07 | COc1c(O)c(=O)n2c3ccccc3c3ccnc1c32
i | 0.69 | COc1ccccc1NC(=O)CCc1c(C)[nH]c(=O)c(C#N)c1C
i | -0.11 | Fc1ccc(CO/N=C2\CCCc3nonc32)cc1
i | -0.23 | NC/C(=N\O)c1ccc(Cl)cc1Cl
i | 1.02 | CC(OC(=O)Cn1cnc2ccccc2c1=O)C(=O)N(C)c1ccccc1 (stereo not given)
i | -0.25 | O=C(CC12CC3CC(CC(C3)C1)C2)NCc1ccc(F)cc1
i | 0.06 | CCn1c(CNc2ccc(Cl)cc2)nnc1SCC#N
i | 0.27 | COc1ccc(/C=N/NC(=O)c2cccnc2)cc1CSc1nc2ccccc2s1
i | 1.7 | CC(C)CNC(=O)COC(=O)c1c2c(nc3ccccc13)/C(=C/c1cccs1)CC2
i | 0.96 | Cc1ccc(NC(=S)c2nc3ccccc3[nH]2)c(C)c1
i | 0.8 | O=c1cnnc(N/N=C/c2cccs2)[nH]1
i | -1.47 | O=C(NCc1ccc(F)cc1)C1CC(=O)N(Cc2ccco2)C1 (stereo not given)
i | 0.75 | O=C1CCCN2N=C(SCC(=O)N3N=C(c4ccc(Br)cc4)CC3c3ccc(F)cc3)SC2=N1 (stereo not given)
i | -0.24 | COc1ccc(C(=O)Cc2ccccc2)cc1OC

Whole records, looked up by structure. Order of screens: KCNQ2 inh, KCNQ2 inh baseline
Results for `COC(=O)c1sccc1NC(=O)c1c(C)c(-c2cccc(Cl)c2)nc2ccccc12` → -5.74*, 1.51*
Results for `COc1ccc(C(=O)Cc2ccccc2)cc1OC` → i, -0.24
Results for `Cc1ccc(NC(=S)c2nc3ccccc3[nH]2)c(C)c1` → i, 0.96
Results for `Cc1nc(CS(=O)(=O)c2ccc(Cl)cc2)cc(Sc2ccccc2Cl)n1` → i, -0.02
Results for `O=C1CCCN2N=C(SCC(=O)N3N=C(c4ccc(Br)cc4)CC3c3ccc(F)cc3)SC2=N1` (stereo not given) → i, 0.75

Remaining list, next part:
KCNQ2 inh | KCNQ2 inh baseline | structure
i | 0.28 | C/C(=N/NC(N)=S)c1cc2ccc(O)cc2oc1=O
i | -0.04 | C/C(=C\c1ccccc1)CN1CCN(c2ccccc2)CC1
i | 0.42 | Cc1nc(/C=[N+](\[O-])C(C)(C)/C=N/O)n(O)c1C
i | 1.05 | Cc1ccc(S(=O)(=O)Nc2cccc(-c3ccc(N4CCCCCC4)nn3)c2)c(C)c1
i | 2.3 | COc1ccc(C2Nc3ccccc3C(=O)N2c2ccccc2)cc1Cn1cc([N+](=O)[O-])cn1 (stereo not given)
i | -0.09 | O=C(CSc1nnc(CN2CCCCC2)n1-c1ccccc1)c1ccc2c(c1)OCO2
i | -0.65 | CCC/C=C1/CCCOC(C(=O)NCc2ccccn2)(C(F)(F)F)C1 (stereo not given)
i | -0.78 | COc1ccc(C(=O)c2ccc(N(C)C)cc2)c2ccccc12
i | 0.04 | COc1ccc(S(=O)(=O)NCC2CCCO2)cc1NC(=O)c1ccccc1F (stereo not given)
i | 1.18 | Cc1cc(NC(=O)C(C)SCC(=O)Nc2cc(C(F)(F)F)ccc2N2CCOCC2)no1 (stereo not given)
i | 2.47 | CCOC(=O)N1CCN(C(=O)c2cccc(S(=O)(=O)Nc3ccc(OC)cc3)c2)CC1
i | -0.46 | NC(=O)c1ccc(NC(=O)COC(=O)C2(c3cccc(F)c3)CCCC2)cc1
i | -0.14 | CC(CNC(=O)c1ccc(OC2CCN(Cc3ccccn3)CC2)cc1)Oc1cccnc1 (stereo not given)
i | 0.7 | O=C(O)c1ccc2c(c1)C(=O)N(c1ccc([N+](=O)[O-])cn1)C2=O
i | 0.31 | CCSc1nc(-c2ccco2)ccc1C#N
i | -4.5 | O=C(/C(=N/N=C/c1ccc(O)c(O)c1)c1ccccc1)c1ccccc1
i | 0.08 | O=C(N/N=C\c1ccccc1)c1sccc1-n1cccc1
i | 0.51 | CC1C/C(=N\NC(=O)c2cccnc2)CC(C)(C)C1 (stereo not given)
i | -0.64 | O=C(NNC(=O)c1cccc(S(=O)(=O)N2CCc3ccccc32)c1)c1ccccc1
i | -0.89 | O=C(CN(Cc1ccc2c(c1)OCO2)C(=O)CSc1nc2ccccc2o1)NC1CCCCC1
i | 0.62 | Cc1cccc(OCc2nnc(SC(C)C(=O)O)n2Cc2ccccc2)c1 (stereo not given)
i | 0.25 | Cn1cc(/C=C(\NC(=O)c2ccccc2)C(=O)NCCCN2CCOCC2)c2ccccc21
i | 1.76 | COc1ccc(C(=O)c2c3ccc([N+](=O)[O-])cc3[n+]([O-])n2CCCN)cc1
i | -1.45 | Cn1c(=O)[nH]c(=O)c2c1nc(N1CCNCC1)n2CCOc1ccccc1
i | -0.6 | O=C(CCNS(=O)(=O)c1ccc(Br)cc1)NC1CCCCC1
i | -0.18 | COc1ccc(Br)c(C(=O)Nc2ccc(F)cc2)c1
i | -1.25 | COc1ccc(-c2cc3nc(-c4ccccc4)cc(N4CCCC(O)C4)n3n2)cc1 (stereo not given)
i | 0.66 | Cc1ccc(CNC(=O)C2CCCN(Cc3cnn(-c4ccccc4)c3-n3cccc3)C2)cc1 (stereo not given)
i | -0.78 | CCOC(=O)CNC(=S)N(Cc1ccc(C)cc1)Cc1ccc(C)o1
i | 0.21 | CCN(CC(=O)NCc1ccc(Cl)cc1)C(=O)CSCC(=O)Nc1ccc(OC)cc1
i | 1.17 | O=C(NCc1ccc(F)cc1)c1noc2c1CCCC2
i | -2.83 | CC(C)CCNC(=O)C(CC(C)C)N(Cc1ccc2c(c1)OCO2)C(=O)c1snc(C(N)=O)c1N (stereo not given)
i | 1.38 | CC1CCCN(C(=O)CSc2nnc(-c3ccc(S(=O)(=O)N4CCOCC4)cc3)n2C)C1 (stereo not given)
i | 1.13 | Cc1cc(C)c2nc(N3CCCC(C(=O)N4CCN(c5ncccn5)CC4)C3)sc2c1 (stereo not given)
-6.69* | 1.67* | O=C(CC1SC(=Nc2ccccc2)N(CCc2c[nH]c3ccccc23)C1=O)Nc1ccccc1F (stereo not given)
i | 1.02 | Cc1ccc(NS(=O)(=O)c2ccc(NC(=O)C3CC3)cc2)c(C)c1
i | 0.93 | Fc1ccc(-n2c(Cc3ccccc3)nnc2SCc2nc(-c3ccc(Cl)cc3)no2)cc1
i | -0.45 | CCOC(=O)CNC(=O)c1ccccc1
i | -2.59 | O=C(CNc1ccccc1)N/N=C/c1ccc([N+](=O)[O-])cc1
i | 0.76 | CCOc1ccc(-c2cc(C(=O)N3CCN(C)CC3)c3ccccc3n2)cc1
i | -1.14 | O=C(CSc1ccccn1)N1CCCC(Nc2ccccc2)C1 (stereo not given)
i | 1.14 | Cc1cc(NC(=O)c2ccc(Cl)cc2)no1
i | 0.34 | Cc1ccccc1CC(=O)N1CCCC(CCC(=O)N2CCN(c3ccccn3)CC2)C1 (stereo not given)
i | -1.02 | CCCCC[C@H](O)/C=C/[C@@H]1[C@@H](C/C=C\CCCC(=O)O)[C@@H](O)C[C@H]1O
i | 1.14 | CCn1nc(C)cc1C(=O)NC1CC(C)(C)Cc2c1cnn2-c1cccc(F)c1 (stereo not given)
i | -1.14 | O=C(O)c1cc2ccc3cccc4ccc(c1)c2c34
i | 0.42 | O=S(=O)(NCc1ccco1)N1CCCCCC1
i | 0.1 | CN1C(=O)C2(OCC(COc3ccc(Cl)cc3)O2)c2ccccc21 (stereo not given)
i | -0.7 | CCCC(=O)Nc1ccc(Cc2ccc(NC(=O)CCC)c(C(=O)O)c2)cc1C(=O)O
i | -0.87 | COc1ccc(S(=O)(=O)Nc2ccc(N3CCOCC3)cc2)cc1Br
i | 1.39 | Cc1ccccc1OCC(=O)Nc1nnc(S(=O)(=O)N2CCCC2)s1
i | -0.22 | Cc1nn(-c2ccccc2)c2sc(C(=O)N3CCCCC3)cc12
i | -0.4 | O=C(CCCCCN1C(=O)c2ccccc2C1=O)Nc1ccc2c(c1)OCCO2
i | -1.36 | COc1cc(NC(=O)CN2CCCCC2C)c(C)cc1[N+](=O)[O-] (stereo not given)
i | 0.07 | Cc1nn(C)c(Cl)c1C(=O)NCC(=O)O
i | -1.12 | COc1ccccc1CNC(=O)c1ccc(S(=O)(=O)N2CCCC2)cc1
i | 0.57 | C=C(C)COc1ccc(-c2n[nH]c(C)c2-c2ccccc2OC)c(O)c1
i | -0.29 | CCOC(=O)N1CCC(Nc2c(NCCN3CCN(c4cccc(Cl)c4)CC3)c(=O)c2=O)CC1
i | -0.04 | Cc1ccc(CSC2=Nc3sccc3C3=NC(=O)CN23)cc1
i | -0.01 | COc1ccc(N(CC(=O)N2CCOCC2)S(C)(=O)=O)cc1

Filtered by structure: those above with a CF3 group (4)
KCNQ2 inh | KCNQ2 inh baseline | structure
i | -0.83 | Fc1ccc(Oc2nc(-c3ccccc3)nnc2C(F)(F)F)cc1
-7.68* | 0.44* | COC(=O)c1cc(NC(=O)c2cccc(C(F)(F)F)c2)c(=O)oc1C/C=N/OCc1cccc(Cl)c1Cl
i | -0.65 | CCC/C=C1/CCCOC(C(=O)NCc2ccccn2)(C(F)(F)F)C1 (stereo not given)
i | 1.18 | Cc1cc(NC(=O)C(C)SCC(=O)Nc2cc(C(F)(F)F)ccc2N2CCOCC2)no1 (stereo not given)

(list continues)
KCNQ2 inh | KCNQ2 inh baseline | structure
i | -0.03 | CCCCCCCC(=O)Nc1ccc(C(=O)N/N=C/c2cccc([N+](=O)[O-])c2)cc1
i | 0.32 | O=C(c1cc2sccc2n1Cc1ccccc1)N1CCCc2ccccc21
i | -0.62 | COc1ccc(C2N(C(=O)C(F)(F)F)C(C)CN2S(=O)(=O)c2ccc(C)cc2)cc1 (stereo not given)
i | 0.49 | O=C(O)c1cc(O)ccc1NC(=O)C1CCCO1 (stereo not given)
i | -0.62 | Cc1c(NC(=O)c2c(F)cccc2F)c(=O)n(-c2ccccc2)n1C
i | -0.76 | COc1ccccc1N1CCN(S(=O)(=O)CCNC(=O)C23CC4CC(CC(C4)C2)C3)CC1
i | 0.14 | Cc1ccc(C2=NN3C(=O)c4ccccc4C3C2)cc1 (stereo not given)
i | -0.83 | COc1ccccc1CN(Cc1nc2ccccc2c(=O)[nH]1)C(=O)Nc1ccc(C)cc1
i | 1.02 | COc1ccccc1/C=C(\NC(=O)c1cccc(C)c1)C(=O)Nc1ccccn1
i | -1.13 | C/C(=N\OC(=O)NC1CCCCC1)c1sc(-c2ccccc2)nc1C
i | -0.03 | COc1ccc(-c2nnc(NC(=O)CS(=O)(=O)c3ccc(F)cc3)o2)c(OC)c1
i | -1.44 | Cn1cccc1/C=C1\CCc2ccccc2C1=O
i | 2.01 | O=C1C(=O)N(CCN2CCOCC2)C(c2ccccc2F)/C1=C(\O)c1ccc(S(=O)(=O)N2CCOCC2)cc1 (stereo not given)
i | 1.06 | CN(C)c1ccc(C(=O)OCC(=O)N2CCCC2)cc1
i | -0.12 | CCN(Cc1ccccc1)Cc1nc(CCc2ccccc2)no1
i | -0.89 | Cc1cc2[nH]c(=O)c(=O)[nH]c2cc1S(=O)(=O)NC1CCC(C)CC1 (stereo not given)
i | 0.23 | Cc1ccc(N(CC(=O)NCCSCc2ccco2)S(=O)(=O)c2ccc(C)cc2)cc1
i | 0.2 | CC1=C(C(=O)NCCN2CCOCC2)C2(CCC(C)CC2)OC1=O (stereo not given)
